A1 apoptosis 2 – compounds inhibiting A1, read as caspase activation; MEF A1-2A-BIM cells, caspase-Glo luminescence, 3 h; percent of clofoctol response, DMSO zero; caspase activation, % (no concentration beside the values); 24,000 tested, under 10 active; AID 2465; in the data active means caspase activation above about 5.9%;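 further: wells of about 30 µL received 50 nL stock; the first replicate is given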
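Test system – A1-2A-BIM-expressing MEF cells · Input – 2500 cells/well · Medium – RPMI-1640 growth medium with 10% FBS · Compound dosing – 50 nL pinned compound · Timing – 3 h compound exposure at 37 °C · Technique – Caspase-Glo luminescence (DEVD substrate) · Evaluation – Caspase-3/7 activity from luminescence increase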
Starred values were filed as active, the others as inactive. Not all compounds are listed; count on the stated rates, not on these rows.

SMILES	A1 apoptosis 2
C[C@@H]1CN([C@H](C)CO)C(=O)c2cc(NC(=O)Cc3ccccc3)ccc2O[C@H]1CN(C)S(=O)(=O)c1cn(C)cn1	0.2
C[C@@H]1CN([C@@H](C)CO)C(=O)c2cccc(NC(=O)C3CCOCC3)c2O[C@H]1CN(C)C(=O)NC1CCCCC1	0.7
C[C@H](CO)N1C[C@H](C)[C@@H](CN(C)S(=O)(=O)c2cn(C)cn2)OCc2cn(nn2)CCCC1=O	-0.4
C[C@H]1C=C(C(=O)NCc2nc3ccccc3[nH]2)O[C@@H](OCc2ccc(CO)cc2)C1	-0.1
COc1ccc(NC(=O)Nc2ccc3c(c2)C(=O)N([C@@H](C)CO)C[C@H](C)[C@H](CN(C)Cc2ccc(-c4ccccc4)cc2)O3)cc1	0.7
COC(=O)c1ccc(/C=N/NC(=O)c2cccc(C(=O)NO)c2)cc1	-5.5
Cc1noc(C)c1NC(=O)N(C)C[C@H]1OCCCC[C@H](C)Oc2ccc(NC(=O)c3ccncc3)cc2C(=O)N([C@@H](C)CO)C[C@@H]1C	-0.1
Cc1noc(C)c1S(=O)(=O)Nc1ccc2c(c1)C(=O)N([C@@H](C)CO)C[C@@H](C)[C@@H](CN(C)Cc1ccc(C(F)(F)F)cc1)OCCCC[C@@H](C)O2	0.8
CCn1c2ccccc2c2cc(/C=N/NC(=O)c3ccccn3)ccc21	-1.3
C[C@@H]1CN([C@H](C)CO)C(=O)Cc2cc(NC(=O)C3CC3)ccc2O[C@@H]1CN(C)S(=O)(=O)c1cn(C)cn1	-1.6
COc1ccc(S(=O)(=O)N(C)C[C@H]2Oc3c(NC(=O)NC4CCCCC4)cccc3C(=O)N([C@H](C)CO)C[C@@H]2C)cc1	-0.6
C[C@@H]1CN([C@@H](C)CO)C(=O)c2cc(NC(=O)Nc3ccc(F)cc3)ccc2O[C@@H](C)CCCCO[C@H]1CN(C)Cc1ccc(C(=O)O)cc1	-0.7
COc1ccc(S(=O)(=O)N(C)C[C@H]2Oc3c(NS(C)(=O)=O)cccc3C(=O)N([C@@H](C)CO)C[C@H]2C)cc1	0.1
C[C@@H]1CN([C@@H](C)CO)C(=O)c2cccc(NC(=O)c3nc4ccccc4s3)c2O[C@H]1CN(C)Cc1ccccc1	0.5
COC(=O)N(C)C[C@H]1OCc2cnnn2CCCC(=O)N([C@@H](C)CO)C[C@H]1C	-0.6
COc1ccc(C#Cc2cnc3c(c2)C(=O)N([C@H](C)CO)C[C@H](C)[C@H](CN(C)C(=O)Nc2c(C)noc2C)O3)cc1OC	0.3
C[C@@H]1CCCCO[C@H](CN(C)Cc2ccncc2)[C@@H](C)CN([C@H](C)CO)C(=O)c2cc(NC(=O)c3ccccc3)ccc2O1	1.1
C[C@H](CO)N1C[C@H](C)[C@@H](CN(C)C(=O)NC2CCCCC2)Oc2c(NC(=O)C3CCOCC3)cccc2C1=O	0.6
C[C@H](CO)N1C[C@H](C)[C@H](CN(C)Cc2ccc(C(=O)Nc3ccccc3N)cc2)OCc2cn(nn2)CCCC1=O	1.0
C[C@@H]1CCCCO[C@H](CN(C)Cc2ccc3c(c2)OCO3)[C@@H](C)CN([C@@H](C)CO)C(=O)c2cc(NS(C)(=O)=O)ccc2O1	2.3
C[C@@H]1CN([C@H](C)CO)C(=O)c2cccc(NC(=O)c3cnccn3)c2O[C@@H]1CN(C)C(=O)NC1CCCCC1	-0.5
C[C@H]1CN([C@@H](C)CO)C(=O)c2cc(NC(=O)Cc3ccccc3)ccc2O[C@H]1CN(C)C(=O)Nc1cccc2ccccc12	-0.2
C[C@H]1CN([C@@H](C)CO)C(=O)c2cccc(NC(=O)c3cnccn3)c2O[C@H]1CN(C)C(=O)Nc1ccccc1	-0.3
C[C@@H]1CN([C@H](C)CO)C(=O)Cc2cc(NC(=O)Cc3cn(C)c4ccccc34)ccc2O[C@H]1CN(C)S(C)(=O)=O	1.2
Cc1noc(C)c1NC(=O)N(C)C[C@@H]1OCCCC[C@H](C)Oc2ccc(NC(=O)Nc3ccc(F)cc3)cc2C(=O)N([C@@H](C)CO)C[C@@H]1C	0.8

Looked up above.
Value for `C[C@H](CO)N1C[C@H](C)[C@@H](CN(C)S(=O)(=O)c2cn(C)cn2)OCc2cn(nn2)CCCC1=O` under A1 apoptosis 2: -0.4
Value for `COc1ccc(S(=O)(=O)N(C)C[C@H]2Oc3c(NS(C)(=O)=O)cccc3C(=O)N([C@@H](C)CO)C[C@H]2C)cc1` under A1 apoptosis 2: 0.1
Value for `Cc1noc(C)c1NC(=O)N(C)C[C@@H]1OCCCC[C@H](C)Oc2ccc(NC(=O)Nc3ccc(F)cc3)cc2C(=O)N([C@@H](C)CO)C[C@@H]1C` under A1 apoptosis 2: 0.8
Value for `Cc1noc(C)c1S(=O)(=O)Nc1ccc2c(c1)C(=O)N([C@@H](C)CO)C[C@@H](C)[C@@H](CN(C)Cc1ccc(C(F)(F)F)cc1)OCCCC[C@@H](C)O2` under A1 apoptosis 2: 0.8
Value for `COc1ccc(C#Cc2cnc3c(c2)C(=O)N([C@H](C)CO)C[C@H](C)[C@H](CN(C)C(=O)Nc2c(C)noc2C)O3)cc1OC` under A1 apoptosis 2: 0.3

Additional structures follow.
SMILES	A1 apoptosis 2
C[C@@H]1CN([C@H](C)CO)C(=O)Cc2cc(NC(=O)CCN3CCOCC3)ccc2O[C@@H]1CN(C)S(C)(=O)=O	-0.8
CC(C)NC(=O)N(C)C[C@H]1Oc2ccc(NS(=O)(=O)c3ccc(Cl)cc3)cc2C(=O)N([C@H](C)CO)C[C@@H]1C	-0.3
C[C@@H]1CN([C@@H](C)CO)C(=O)c2cccc(NS(=O)(=O)c3ccccc3)c2O[C@@H]1CN(C)Cc1ccc(C(=O)Nc2ccccc2N)cc1	-1.2
CC1OC(OCC2OC(Oc3c(-c4ccc(O)c(O)c4)oc4cc(O)cc(O)c4c3=O)C(O)C(O)C2O)C(O)C(O)C1O (stereo not drawn)	0.2
Cc1ccc(S(=O)(=O)N(C)C[C@H]2OCCCC[C@H](C)Oc3ccc(NC(=O)Cc4ccccc4)cc3C(=O)N([C@@H](C)CO)C[C@@H]2C)cc1	0.2
C[C@@H]1CCCCO[C@H](CN(C)CC2CC2)[C@H](C)CN([C@@H](C)CO)C(=O)c2cc(NC(=O)Nc3ccccc3)ccc2O1	-0.7
C[C@@H]1CCCCO[C@@H](CN(C)Cc2ccncc2)[C@@H](C)CN([C@@H](C)CO)C(=O)c2cc(NS(=O)(=O)c3ccccc3)ccc2O1	-0.3
Cc1noc(C)c1S(=O)(=O)Nc1ccc2c(c1)CC(=O)N([C@@H](C)CO)C[C@@H](C)[C@@H](CN(C)CC1CCCCC1)O2	0.8
COc1ccc(NC(=O)Nc2ccc3c(c2)C(=O)N([C@@H](C)CO)C[C@H](C)[C@@H](CN(C)S(=O)(=O)c2ccc(Cl)cc2)OCCCC[C@@H](C)O3)cc1	-0.4
COc1ccc(NC(=O)Nc2cccc3c2O[C@H](CN(C)S(=O)(=O)c2cccs2)[C@H](C)CN([C@H](C)CO)C3=O)cc1	-1.2
COc1ccc(/C=C/C=O)cc1	-1.8
O=C(CCCCCC(=O)N/N=C/c1ccc(F)cc1)NO	1.0
C[C@@H]1CN([C@H](C)CO)C(=O)Cc2cc(NC(=O)CCC(F)(F)F)ccc2O[C@H]1CN(C)Cc1ccc(C(=O)Nc2ccccc2N)cc1	-0.9
CNC[C@@H]1OCCCC[C@@H](C)Oc2ccc(NC(=O)Nc3ccc(C(F)(F)F)cc3)cc2C(=O)N([C@H](C)CO)C[C@@H]1C	0.5
COc1ccc(S(=O)(=O)N(C)C[C@H]2Oc3ccc(NC(=O)Cc4ccccc4)cc3CC(=O)N([C@H](C)CO)C[C@@H]2C)cc1	-0.1
COc1ccc(NC(=O)Nc2ccc3c(c2)C(=O)N([C@H](C)CO)C[C@H](C)[C@@H](CN(C)S(C)(=O)=O)O3)cc1	-0.8
C[C@H](CO)N1C[C@H](C)[C@@H](CN(C)Cc2ccncc2)OCCCC[C@H](C)Oc2ccc(NC(=O)CCC(F)(F)F)cc2C1=O	-0.3
Cc1noc(C)c1S(=O)(=O)Nc1ccc2c(c1)C(=O)N([C@@H](C)CO)C[C@H](C)[C@@H](CN(C)C(=O)Nc1ccccc1)O2	-0.2
COc1ccc(/C=N/NC(=O)CCCCCC(=O)NO)cc1O	-0.6
C[C@@H]1CCCCO[C@H](CN(C)S(=O)(=O)c2ccc(F)cc2)[C@@H](C)CN([C@H](C)CO)C(=O)c2cc(NC(=O)Nc3cccc4ccccc34)ccc2O1	0.5
C[C@H](CO)N1C[C@H](C)[C@@H](CN(C)S(=O)(=O)c2cccs2)OCCCC[C@H](C)Oc2ccc(NC(=O)CCC(F)(F)F)cc2C1=O	-1.1
C[C@H](CO)N1C[C@H](C)[C@H](CN(C)CC2CC2)OCCCC[C@H](C)Oc2ccc(NC(=O)Nc3ccc(C(F)(F)F)cc3)cc2C1=O	-0.2
COc1ccc(NC(=O)N(C)C[C@H]2OCCCC[C@@H](C)Oc3ccc(NC(=O)CCCN(C)C)cc3C(=O)N([C@H](C)CO)C[C@@H]2C)cc1	-1.1
COc1ccc(S(=O)(=O)Nc2ccc3c(c2)C(=O)N([C@@H](C)CO)C[C@@H](C)[C@H](CN(C)S(=O)(=O)c2c(C)noc2C)OCCCC[C@H](C)O3)cc1	-0.2
C[C@@H]1CN([C@@H](C)CO)C(=O)c2cc(NS(C)(=O)=O)ccc2O[C@@H]1CN(C)S(=O)(=O)c1ccc(F)cc1	-0.3
C[C@@H]1CN([C@H](C)CO)C(=O)c2cc(NC(=O)Nc3ccc(F)cc3)ccc2O[C@H]1CN(C)Cc1ccc(C(=O)O)cc1	0.2
C[C@H]1CN([C@@H](C)CO)C(=O)c2cccc(NC(=O)C3CC3)c2O[C@H]1CN(C)C(=O)Nc1ccc(C(F)(F)F)cc1	0.0
C[C@@H]1CCCCO[C@H](CN(C)C(=O)Cc2ccccc2)[C@@H](C)CN([C@@H](C)CO)C(=O)c2cc(NC(=O)CCC(F)(F)F)ccc2O1	1.8

Reprinted at random: 4 records from the list.
SMILES	A1 apoptosis 2
CC(C)NC(=O)N(C)C[C@H]1Oc2ccc(NS(=O)(=O)c3ccc(Cl)cc3)cc2C(=O)N([C@H](C)CO)C[C@@H]1C	-0.3
C[C@@H]1CN([C@H](C)CO)C(=O)Cc2cc(NC(=O)CCN3CCOCC3)ccc2O[C@@H]1CN(C)S(C)(=O)=O	-0.8
Cc1noc(C)c1S(=O)(=O)Nc1ccc2c(c1)CC(=O)N([C@@H](C)CO)C[C@@H](C)[C@@H](CN(C)CC1CCCCC1)O2	0.8
COc1ccc(NC(=O)Nc2cccc3c2O[C@H](CN(C)S(=O)(=O)c2cccs2)[C@H](C)CN([C@H](C)CO)C3=O)cc1	-1.2

From PubChem BioAssay
